# GIV-Gai inh – inhibitors of GIV peptide binding to Galpha-i3, primary screen, biochemical, fluorescence polarization, FITC-GIV GBA peptide, rat Galphai3. 90 min; stronger effect = lower value; scaled: aluminum fluoride 0%, vehicle 100%. 0.42% of 210,000 active. percent of control (FP), % (test concentration not listed);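 active = replicate mean at 85% of control or lower, very high polarization wells dropped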;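 note: wells of about 15 µL received 100 nL stock; the first replicate is given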
# Target sequence (P08753 whole entry, looked up): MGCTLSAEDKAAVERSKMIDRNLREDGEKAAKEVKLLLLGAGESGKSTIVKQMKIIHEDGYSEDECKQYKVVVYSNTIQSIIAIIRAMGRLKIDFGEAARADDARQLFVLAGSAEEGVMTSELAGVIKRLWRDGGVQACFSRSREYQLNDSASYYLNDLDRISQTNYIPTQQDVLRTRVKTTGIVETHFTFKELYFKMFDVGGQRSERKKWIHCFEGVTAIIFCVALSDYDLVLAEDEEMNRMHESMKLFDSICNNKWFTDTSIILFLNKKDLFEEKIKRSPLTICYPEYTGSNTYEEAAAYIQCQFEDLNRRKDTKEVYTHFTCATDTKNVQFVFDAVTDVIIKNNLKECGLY
# HCMV NEC inh – inhibitors of HCMV UL50-UL53 interaction, biochemical, HTRF; normalized percent inhibition; inhibition, % (no concentration beside the values); 0.15% of 190,000 active; AID 1918969, 2023;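 active = both replicates at 50% or more, plus weaker picks with an unusually low signal ratio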;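 note: stock transfer was 100 nL into about 20 µL; 0% = negative control wells and 100% = wells with untagged competitor protein; inactives centre near -12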
# Sa growth inh – S. aureus growth inhibition at 42 and 30 °C, primary screen, LtaS inhibitor project, RN4220, two temperatures. OD600, 20 h, 42 °C; stronger effect = lower value. relative growth, % (concentration not given with the values). 0.53% of 170,000 active;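 active = growth at 42 °C up to 50% and 20 or more points under that at 30 °C, or under 10% at both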;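 note: 300 nL library stock went into each well; scaled to the means of positive and negative controls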
# Sa growth inh second temp – second read-out of Sa growth inh, no call of its own (marks repeat the call); relative growth, %; measured here: growth at 30 °C;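 optical density after 20 h as mean of two plates; 100% = untreated growth and lower means inhibition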
# * hit, by the source's call; nt = not tested or not shown; & = joins results of further samples.
# Each structure is followed by: GIV-Gai inh, HCMV NEC inh, Sa growth inh, Sa growth inh second temp
1. Cc1cccc(CN2C(=O)c3ccc(-c4ccccc4)n3CC2(C)C(=O)NC2CCCC2)c1 (configuration not stated)
    99, -10, nt, nt
2. CCNC(=O)C1CC(=O)N(c2ccc(C)cc2)C1 (configuration not stated)
    nt, -1, 90, 91
3. O=C(CCc1nnc(C(=O)Nc2cccc(Cl)c2)s1)NCc1ccc(F)cc1
    96, -15, nt, nt
4. O=C1Nc2ccccc2-c2ccccc2N1
    107, -13, 111, 103
5. c1ccc(CSC2=NCN(Cc3ccccc3)CN2)cc1
    104, 23, 65, 88
6. Cc1c(C2=CCN(S(=O)(=O)c3ccc(F)cc3)CC2)c2ccccc2n1Cc1ccccc1
    109, -35, nt, nt
7. Cc1ccc(Cl)cc1NC(=O)CN1CCN(Cc2ccccc2)C(=O)C1=O
    95, 1, nt, nt
8. Clc1ccccc1-c1nnc(SCCC2OCCCO2)o1
    109, -6, nt, nt
9. CC1(C)C2CC=C(CNc3ccc4c(c3)OCO4)C1C2 (configuration not stated)
    171, -25, 85, 2
10. COC(=O)Cn1c(=O)c(=O)n(CC(=O)OC)c2ccccc21
    102, -35, 88, 86
11. CCc1ccc(CNC(=O)CCc2cn(Cc3ccccc3)c3ccccc23)cc1
    101, nt, 107, 89
12. CCCNC(=O)c1cc(N(C)S(=O)(=O)c2ccccc2)ccn1
    103, -12, 101, 89
13. Cc1nnc(NC(=O)CSCc2cc(=O)c3ccccc3[nH]2)s1
    103, nt, 107, 99
14. COc1cc(NC(=O)CCc2c(C)nn(-c3ccc(N4CCOCC4)nn3)c2C)cc(OC)c1OC
    102, nt, 96, 99
15. COc1ccccc1-c1cc(C(F)(F)F)nc(S(=O)(=O)CCCC(=O)Nc2ccc(F)c(Cl)c2)n1
    102, -3, 105, 91
16. CCn1c(=O)c2cc(C(=O)N(C)c3cc(Cl)c(OC)cc3OC)sc2c2ccccc21
    101, 0, 113, 90
17. COc1cc(C(=O)OCn2c(=O)oc3ccccc32)cc(OC)c1OC
    107, 2, 98, 106
18. O=C1C=C(Cc2ccc(F)cc2)C(=O)c2ccccc21
    99, -24, 0.2*, 0.1*
19. CCOc1ccc(N2CC(c3nc4ccccc4n3CCCOc3ccc(OC)cc3)CC2=O)cc1 (configuration not stated)
    103, -17, 98, 87
20. Cc1cc(-n2c(C)cc(/C=C3\SC(=NC4CCCC4)NC3=O)c2C)no1
    nt, -10, 92, 96
21. Cc1ccc(C(=O)CN(c2nc3nc(C)c(Cl)c(C)n3n2)S(=O)(=O)c2ccccc2)cc1
    103, 4, nt, nt
22. Cc1ccc(-n2cnc3cc(NCc4ccco4)ccc32)cc1
    109, -1, 40, 3
23. C[C@H]1O[C@@H](n2cnc3c(N)ncnc32)[C@H](O)[C@@H]1O
    100, -20, 69, 15
24. CCN(CC)S(=O)(=O)c1ccc(NC(=O)Cn2c(=O)cnc3ccccc32)cc1
    nt, -64, 89, 88
25. Cc1ccccc1NC(=O)Cn1ncc2ccccc21
    99, nt, 91, 82
26. Cc1ccc(NC(=O)C2Sc3nnc(-c4ccccc4)n3NC23CCCCC3)cc1C (configuration not stated)
    103, 10, nt, nt
27. COC(=O)C1=CN(C(CC(C)C)C(=O)OC)C=C(C(=O)OC)C1c1ccc(Br)cc1 (configuration not stated)
    112, nt, 63, 93
28. O=C(CN1C(=O)NC2(CCCC2)C1=O)c1ccccc1
    nt, -8, 94, 90
29. COC(=O)CN1C(=O)CSc2ccc(S(=O)(=O)Nc3ccccc3)cc21
    104, nt, 119, 86
30. Cc1ccc(C)c(NC(=O)NCc2ccc3c(c2)CCN3C(=O)c2ccccc2)c1
    100, nt, 89, 77
31. Cc1ccc(Cl)cc1-n1nnc(-c2nsc(NC(=O)c3ccccc3Cl)n2)c1C
    97, -18, 104, 95
32. CN1CC=C(/C=C/c2ccc(-c3nc4ccccc4s3)o2)CC1
    157, -93, 109, 51
33. CCOC(=O)C1CCC(CNCc2ccccc2)CC1 (configuration not stated)
    102, -15, 91, 86
34. Cc1cccc(-c2nccc(N3CCC(C(=O)NC(C)(C)C)CC3)n2)c1
    112, 7, nt, nt
35. O=C(Oc1ccc2ccc(=O)oc2c1)c1ccccc1
    98, nt, 88, 92
36. Cc1ccc(Cl)cc1NC(=O)Nc1cn(CC(C)C)c(=O)c2ccccc12
    105&98, -18&15, 95, 90
37. CCS(=O)(=O)c1ccc(-c2cccc(NC(=O)Cc3ccccc3)c2)nn1
    103, -13, nt, nt
38. CC1CC(NC2=NCCS2)CC(C)(C)C1 (configuration not stated)
    103, 3, 102, 96
39. Cc1ccc(C(=O)N2C3=C(CCCC3)C(=O)NC23CCCCC3)cc1
    101, 7, 95, 89
40. COC(=O)c1ccccc1NC(=O)CCn1c(=O)c2cccn2c2cccnc21
    98, nt, 100, 88
41. Cc1cc(C)n2nc(CN(C(=O)CC(C)C)c3ccc(F)cc3)nc2n1
    97, 20, nt, nt
42. C=CCNC(=O)C1CCN(S(=O)(=O)CC)CC1
    107, nt, 126, 87
43. CN(C)C=Nc1ccc(Oc2cncc(Cl)c2)nc1
    104, -16, 70, 75
44. Cc1cccc(C)c1NC(=O)Cn1cc(C(=O)C2CC2)c2ccccc21
    98, -12, 92, 83
45. COc1ccc(CCn2c(N)c(Br)c(=O)[nH]c2=O)cc1OC
    103, -11, 109, 97
46. Cc1ccc(S(=O)(=O)N2C(=O)CCC2C(=O)O/N=C(\N)c2ccccn2)cc1 (configuration not stated)
    107, -9, 92, 99
47. C#CCN1C(=O)S/C(=C/c2cc(C)n(-c3cccc(I)c3)c2C)C1=O
    106, -24, 126, 100
48. Clc1ccccc1CN1CCN(Cc2ccco2)CC1
    99, 1, 93, 95
49. O=C(NCc1ccccc1Cl)C1CCCN(S(=O)(=O)c2cccc3nsnc23)C1 (configuration not stated)
    100, -36, 97, 88
50. CCc1ccccc1NC(=O)Cn1c(SCc2ccc(F)cc2)nc2ccncc21
    98, -13, 114, 75
51. CC(C)(C)c1ccc(S(=O)(=O)N2CCN(C(=O)c3cc(-c4ccc(Br)cc4)n[nH]3)CC2)cc1
    105, nt, 99, 102
52. CCOC(=O)N1CCC(NC(=O)c2cc(C)on2)CC1
    103, 16, 118, 101
53. COc1ccc(NC(=O)CSc2cc(-c3ccccc3)nc(C)n2)cc1
    107, 6, 93, 92
54. CC(C)c1nc2n(n1)C1(CCCCC1)[C@@H]1CCCC[C@@H]1N2
    101, 15, 93, 94
55. O=C(NC1CC(=O)N(c2ccc(Cl)cc2)C1)C1CCCC1 (configuration not stated)
    93&98, nt, 112, 90
56. C=CCN1CC(c2nc3ccccc3n2CC(C)C)CC1=O (configuration not stated)
    100, nt, 103, 90
57. COCCNC(=O)c1ccc2c(c1)N(Cc1cc(C)ccc1C)C(=O)c1ccccc1S2=O (configuration not stated)
    98, -19, 104, 87
58. CCSc1nn(CC(=O)Nc2ccc(F)cc2F)c(N)c1S(=O)(=O)c1ccc(OC)cc1
    96, -22, nt, nt
59. Cc1cc2nc(C)c(=O)n(CCC(=O)NCCc3c[nH]c4ccc(Cl)cc34)c2cc1C
    180, -36, nt, nt
60. O=C(c1csc(S(=O)(=O)N2CCOCC2)c1)N1CCCCC1
    108, -20, nt, nt

# Another view of some results above.
entry	SMILES	GIV-Gai inh	HCMV NEC inh	Sa growth inh	Sa growth inh second temp
44	Cc1cccc(C)c1NC(=O)Cn1cc(C(=O)C2CC2)c2ccccc21	98	-12	92	83
45	COc1ccc(CCn2c(N)c(Br)c(=O)[nH]c2=O)cc1OC	103	-11	109	97
42	C=CCNC(=O)C1CCN(S(=O)(=O)CC)CC1	107	nt	126	87
56	C=CCN1CC(c2nc3ccccc3n2CC(C)C)CC1=O (configuration not stated)	100	nt	103	90
47	C#CCN1C(=O)S/C(=C/c2cc(C)n(-c3cccc(I)c3)c2C)C1=O	106	-24	126	100

# Values in list order from the list.
# Compounds 14–21 in HCMV NEC inh, in turn: nt, -3, 0, 2, -24, -17, -10, 4

# Next part:
# Each structure is followed by: GIV-Gai inh, HCMV NEC inh, Sa growth inh, Sa growth inh second temp
61. CC(=O)N(CC(=O)O)c1ccccc1C(=O)O
    104, 3, 103, 107
62. COC(=O)C1CCN(C(=O)Cn2c(=O)cnc3ccccc32)CC1
    nt, -50, 86, 98
63. Cc1ccc(C(=O)Nc2ccc3c(c2)n(C)c(=O)c(=O)n3C)cc1
    106, -6, 117, 88
64. N#Cc1c(NC(=S)NC(=O)c2ccco2)sc2c1CCCC2
    109, 2, 126, 66
65. COc1ccc(C)cc1NC(=O)Cn1c(=O)ccc2cc(S(=O)(=O)N3CCC(C)CC3)ccc21
    101, nt, 95, 84
66. CCOc1ccc(C(=O)N2CCc3cc(OC)c(OC)cc3C2COc2ccc3c(C)cc(=O)oc3c2)cc1OCC (configuration not stated)
    101, 8, 97, 86
67. Fc1ccc(Cn2c(COc3ccccc3)nc3ccccc32)cc1
    99, -14, nt, nt
68. CN1/C(=C\C(=O)CN2CCOCC2)C(C)(C)c2ccccc21
    nt, -7, 76, 94
69. COc1ccc(COC(=O)C2=C(C)NC(=O)NC2c2cccc(Br)c2)cc1 (configuration not stated)
    100, -3, nt, nt
70. COc1ccc(-c2nc3c(cc2C#N)c(=O)n(C)c(=O)n3CC(C)C)cc1
    nt, -12, 89, 98
71. CCCN1C(C(=O)c2ccccc2)=C(OC(=O)c2ccc(F)cc2)c2ccccc2S1(=O)=O
    105, -26, 26, 37
72. COC(=O)c1scc(-c2ccc(C)cc2)c1S(=O)(=O)Nc1ccc(F)cc1F
    103, nt, 121, 81
73. Cc1ccc(S(=O)(=O)c2ccc(-n3ncc(C#N)c3N)cc2)cc1
    nt, -12, 80, 94
74. O=C(O)c1nn2cc(CCO)cnc2c1Cl
    100, -35, nt, nt
75. COc1ccc2[nH]c3c(c2c1)CCN(C(=O)c1ccc(F)cc1)C3c1ccc(F)cc1 (configuration not stated)
    98, -11, nt, nt
76. COCCN1Cc2cccc(C(=O)Nc3ccc4c(C)cc(=O)oc4c3)c2C1=O
    96, nt, 110, 88
77. Cc1cccc(OCC(=O)Nc2ccc(NC(=O)c3ccco3)cc2)c1
    97, -15, 108, 77
78. COC(CNC(=O)Cn1nc(-c2ccccc2)c2cc(Cl)ccc21)OC
    103, nt, 106, 86
79. O=C(NCCc1ccccc1)c1cc(-c2ccccc2)on1
    103, -8, 110, 91
80. CCC(C)NC(=O)Cn1ncn2c(cc3sc(C)cc32)c1=O (configuration not stated)
    103, nt, 116, 92
81. Cc1c(N=Cc2cccnc2)c(=O)n(-c2ccccc2)n1C
    92, -34, 101, 111
82. COc1ccc(OC(=O)c2cc(-c3ccccc3)on2)cc1
    100, -16, nt, nt
83. Nc1c(-c2nc(-c3cccs3)no2)nnn1-c1ccccc1Cl
    107, nt, 124, 96
84. CCc1nc(NN)c2c(n1)-c1ccccc1CC21CCCCC1
    106, -6, 120, 124
85. CC(C)(C)OC(=O)C(C)(C)S(=O)(=O)c1ccc(C(F)(F)F)cn1
    101, -13, 103, 86
86. CCOC(=O)c1c(-c2ccccc2)n(S(C)(=O)=O)c2ccc(NS(C)(=O)=O)cc12
    104, 7, 101, 83
87. CCCn1c(CNS(=O)(=O)c2ccc(C)cc2)nc2ccccc21
    107, 2, 116, 86
88. CCCC(=O)N(c1ccc(OC)cc1)S(=O)(=O)c1ccc2c(c1)n(C)c(=O)n2C
    105, 14, nt, nt
89. COc1ccc(C2CC(=O)N(CC(=O)c3ccccc3)c3ccccc3S2)cc1 (configuration not stated)
    101, 4, 101, 95
90. COc1ccc(Br)cc1-c1nc(CSc2nc3c(c(=O)[nH]2)CCC3)c(C)o1
    105, -34, nt, nt
91. Cc1ccc(CNC(=O)CCc2nnc3c4cc(-c5ccccc5)nn4ccn23)cc1C
    106, -20, nt, nt
92. Nc1nc(-c2cccs2)c(C(=O)C(F)(F)F)s1
    104, -39, 80, 53
93. COC(=O)c1cnc(NN2C(=O)C=C(C)C2=O)nc1C(F)(F)F
    101, -26, 81, 88
94. COc1ccc(CNc2ncnc3scc(-c4ccc(C)cc4)c23)cc1
    111, -29, nt, nt
95. O=C(CCNc1n[nH]c(=O)[nH]c1=O)N1CCOCC1
    nt, -5, 100, 86
96. CC1CCN(C(=O)COC(=O)c2ccc(C#N)cc2)CC1
    nt, -17, 103, 87
97. CCOC(C(=O)c1ccccc1)c1ccccc1 (configuration not stated)
    102, 2, 107, 91
98. CCOc1ccc(Cc2nc(-c3ccc4c(c3)[nH]c(=O)c(=O)n4C(C)C)no2)cc1OCC
    101, -28, nt, nt
99. O=S(=O)(c1ccccc1)N1CCCN(S(=O)(=O)c2ccccc2)CC1
    101, nt, 101, 87
100. O=C(C1CC1)N1CCc2cc(S(=O)(=O)Nc3cccc(F)c3)ccc21
    103, nt, 92, 67
101. CC(C)(C)NC(=O)CN1CCCNCC1
    nt, 15, 104, 93
102. COc1ccc(Cn2ccc3nc(C)c(C(=O)N4CCN(c5ccccc5)CC4)cc3c2=O)cc1
    101, nt, 96, 87
103. CCCC12CN3CC(CCC)(CN(C1)C3C(O)C(O)C(O)CO)C2=O (configuration not stated)
    102, nt, 76, 96
104. Cc1ccc(C)c(Cn2c(=O)n(CCC(=O)NCc3ccc4c(c3)OCO4)c(=O)c3sccc32)c1
    110, -36, 106, 91
105. COc1ccc(C(=O)c2cn(Cc3cccc(C)c3)c3cc4c(cc3c2=O)OCCO4)cc1OC
    95, -30, 116, 87
106. CCOc1cc(C(=O)O)ccc1OCC(C)C
    nt, -10, 98, 91
107. O=C1CCCCCN1Sc1ccccc1
    101, -19, 32, 35
108. Cc1nc2c(-c3ccccc3)c(C)nn2c(C)c1CC(=O)N1CCCC1
    105, 0, 89, 87

# Screens from PubChem BioAssay.
